# From PubChem BioAssay
# Cruzain inh noDet – inhibitors of Trypanosoma cruzi cruzain without detergent; P25779; purified cruzain, Z-FR-AMC fluorescence, no detergent; Potency, µM, for the others: max response, negative = inhibition, hits mostly inhibitors; hit rate 2.3% among 200,000;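 also: plate controls were enzyme without inhibitor for no effect and buffer without enzyme for full effect; nearly all actives have a fitted effect of over 40% in size; top concentration of the series not given in the record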
# Target sequence (P25779 123-467 limits assumed): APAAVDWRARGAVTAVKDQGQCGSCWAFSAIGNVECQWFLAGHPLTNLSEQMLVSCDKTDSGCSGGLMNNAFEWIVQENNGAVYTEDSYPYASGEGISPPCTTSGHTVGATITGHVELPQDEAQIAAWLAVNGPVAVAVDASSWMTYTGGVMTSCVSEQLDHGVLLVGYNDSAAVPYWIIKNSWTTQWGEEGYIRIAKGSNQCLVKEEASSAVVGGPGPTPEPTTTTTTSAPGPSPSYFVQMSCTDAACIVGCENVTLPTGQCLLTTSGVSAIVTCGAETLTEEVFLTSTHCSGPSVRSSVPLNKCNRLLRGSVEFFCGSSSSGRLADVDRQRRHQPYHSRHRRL
#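 Detergent-free condition (0.00005% Triton X-100) in acetate buffer pH 5.5 with DTT. 1.5 nM enzyme and compound were pre-mixed 15 min, then 2 uM Z-FR-AMC substrate added; reaction progress from fluorescence change between first and third reads (60 s).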
# LASV entry inh – Lassa virus entry inhibition; Lassa virus pseudotype entry inhibition, cell reporter; control for the full effect not named in the record; Potency, µM (highest dose often 37.9 µM), inactives show at the top dose activity change, negative = inhibition, actives largely listed as inhibitors; hit rate 1.2% among 300,000; AID 540256; active means well fitted inhibition curve with a large enough effect; inconclusive means small, poorly fitted or top-dose-only effect, or effect the other way; inactive means flat fitted curve, though single readings scatter; tested in HEK293 cells; also: % is scaled to controls: 0 for no effect and ±100 for the full control effect; nearly all actives have a fitted effect of over 50% in size; luciferase read-out
# Marburg entry inh – inhibitors of Marburg virus binding or cell entry; Marburg virus pseudotyped entry inhibition, cell reporter; control for the full effect not named in the record; about a third of the inactives were read at about 46 µM; Potency, µM (titrated, usually from 37.8 µM), for inactives: at the top dose activity change, negative = inhibition, most hits filed as inhibitors; hit rate 1.8% among 300,000; active = well fitted inhibition curve with a large enough effect; inconclusive = small, poorly fitted or top-dose-only effect, or effect the other way; inactive = flat fitted curve, though single readings scatter; tested in HEK293 cells; about a fifth of its hits are not listed in these tables; also: % is scaled to controls: 0 for no effect and ±100 for the full control effect; luciferase read-out
# NS1 function inh – blocks influenza NS1 protein function. S. cerevisiae slowed by influenza A NS1, growth recovery by OD600. Potency, µM (highest dose often 46.1 µM), without a hit: at the top dose activity, positive = more growth. hit rate 0.4% among 270,000; active means well fitted rising curve with a large enough effect; inconclusive means small, poorly fitted or top-dose-only effect; inactive means no such curve, though single readings can be large or run the other way; also: nearly all actives have a fitted effect of over 50% in size
#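 Read-out: OD600 growth recovery of NS1-expressing budding yeast. Cells grown overnight at 30C in -URA glucose medium, washed, resuspended and diluted 1:100 in 2% galactose assay medium, pH 6.0. Same strain lacking NS1 served as positive control.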
# RE007 growth inh – less growth of the S. pombe RE007 Vpr strain; AID 651644; S. pombe RE007 Vpr strain, BacTiter-Glo ATP luminescence, 24 h; control for the full effect not named in the record; Potency, µM (series often up to 92.2 µM), inactives show at the top dose activity change, negative = less growth; hit rate 0.21% among 360,000; active = well fitted falling curve with a large enough effect; inconclusive = small, poorly fitted or top-dose-only effect; inactive = no such curve, though single readings can be large or run the other way;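 also: % is scaled to controls: 0 for no effect and ±100 for the full control effect; nearly all actives have a fitted effect of over 50% in size; the assay follows cell death caused by Vpr and the record does not say whether a fall means rescue or toxicity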
#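 Fission yeast RE007 carrying one integrated HIV-1 vpr copy, seeded at OD 0.01 in PMG+AL medium with 23 nL pinned compound. Grown 24 h at 30 degrees; viability read by BacTiter-Glo luminescence after 5 min.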
# SARS PLP yeast – SARS-CoV PLP inhibition in yeast. S. cerevisiae expressing SARS-CoV PLpro, growth rescue; control for the full effect not named in the record. Potency, µM (titrated, usually from 32.9 µM), for the others: at the highest dose activity, positive = growth rescue. hit rate 0.19% among 330,000. AID 485353; active means well fitted rising curve with a large enough effect; inconclusive means small, poorly fitted or top-dose-only effect; inactive means no such curve, though single readings can be large or run the other way; also: 0% is about no effect; nearly all actives have a fitted effect of over 55% in size; growth read by luminescence after 48 h
# Cruzain inh Det – cruzain (T. cruzi) inhibition with detergent. P25779. purified cruzain, Z-FR-AMC fluorescence, 0.01% Triton. Potency, µM, without a hit: max response, negative = inhibition, actives largely listed as inhibitors. hit rate 0.43% among 200,000;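 also: plate controls were neutral wells for no effect and buffer without enzyme for full effect; nearly all actives have a fitted effect of over 40% in size; top concentration of the series not given in the record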
#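 Sodium acetate buffer (100 mM, pH 5.5) containing 5 mM DTT and 0.01% Triton X-100 hosted 1.5 nM cruzain and test compound for 15 min at room temperature. Cleavage of 2 uM Z-FR-AMC was then tracked by fluorescence.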
# StopGo reporter – FMDV 2A StopGo reporter, luciferase signal; human cells with a luciferase reporter of 2A StopGo recoding; control for the full effect not named in the record; Potency, µM (series often up to 57.9 µM), for inactives: at the top dose signal change, negative = less light; hit rate 1.2% among 410,000; AID 1159524; active = well fitted falling curve with a large enough effect; inconclusive = small, poorly fitted or top-dose-only effect; inactive = no such curve, though single readings can be large or run the other way; tested in HEK293T cells; also: % is scaled to controls: 0 for no effect and ±100 for the full control effect; nearly all actives have a fitted effect of over 45% in size; luciferase light after 4 h
# * marks the source's active call; other numbers are inactive results; ? = inconclusive; . = not tested or not shown; & = joins results of further samples; ! = not confirmed by another sample; [ ] = remark or other dose. Unless noted, calls follow the shape of the dose curve; as a rule, active = well fitted curve in the direction sought with a large enough effect; inconclusive = small, poorly fitted or top-dose-only effect, or another doubt; inactive = no such curve, though single readings can be large; an effect the other way counts as inactive or inconclusive. Potency is read from the fitted curve at half-maximal effect.
entry	Structure	Cruzain inh noDet	LASV entry inh	Marburg entry inh	NS1 function inh
1	CCCNC(=O)Cn1cnc2sc(C(=O)N3CCN(c4ccc(F)cc4)CC3)c(C)c2c1=O	2%	-6%	14%	-1%
2	O=C1C2C(C(=O)N1/N=C/c1cc([N+](=O)[O-])c(O)cc1O)C1C=CC2C12CC2 (stereo not drawn)	.	0%	1%[46.1 µM]	.
3	Cc1cccc(N2CCN(Cc3nnc(-c4cccc(Br)c4)o3)CC2)c1C	-3%	12%[46.1 µM]	0%[46.1 µM]	.
4	COc1ccc(C)cc1NC(=O)n1ncc2c(C)cccc21	.	.	.	0%
5	O=C(NC1CCN(C(=O)Nc2ccc(F)cc2)CC1)c1ccc(F)cc1	.	-10%	-2%	12%
6	O=C(NNC(=S)NC1CCCCC1)c1ccc(Cl)s1	.	3%	-2%[46.1 µM]	3%
7	[N-]=[N+]=CC(=O)C(c1ccccc1)(c1ccccc1)c1ccccc1	.	5%	-14%[14.2 µM]	?
8	O=C(OCCCN=C1NS(=O)(=O)c2ccccc21)c1ccc([N+](=O)[O-])cc1	.	13%	?	1%
9	CS(=O)(=O)CCC(C(=O)OCC(=O)c1ccc(Cl)cc1)N1C(=O)c2ccccc2C1=O (stereo not drawn)	?	6%	-16%	1%
10	Cc1ccc(C)c(N2CCN(C(=O)c3cc4c(=O)oc5ccccc5c4s3)CC2)c1	-4%	-1%[46.1 µM]	?	.

entry	RE007 growth inh	SARS PLP yeast	Cruzain inh Det	StopGo reporter
1	0%	5%	-9.4%	-10%
2	-2%	-4%	.	33%[activator]
3	.	.	-0.3%	-1%
4	5%	-1%	.	25%
5	-20%	?	.	-7%
6	5%	2%	.	53%[activator]
7	-17%	-3%	.	-29%
8	-16%	-1%	.	-18%
9	12%	5%	-5.7%	-23%
10	.	.	-0.3%	-19%

# The results go on:
entry	Structure	Cruzain inh noDet	LASV entry inh	Marburg entry inh	NS1 function inh
11	COc1ccc2nc(SCC(=O)N(C)C3CCCCC3)[nH]c2c1	.	16%	2%	.
12	CCCN(CCC)CCc1ccc(O)c(O)c1	-5%	24%	1µM*!	-4%
13	Cc1n[nH]c(=S)n(NC(=O)CC(=O)Nn2c(=S)[nH]nc(C)c2=O)c1=O	.	3%	6%[46.1 µM]	.
14	Cc1cccc(OP(N)(N)=O)c1C	.	-1%	22%[46.1 µM]	.
15	CC(C)Cn1c(SCc2nc3ccccc3c(=O)[nH]2)nc2ccccc2c1=O	18%	2%	-8%	2%
16	C=CCn1c(O)c(C=Nc2ccc(Cc3ccncc3)cc2)c(=O)[nH]c1=S	27%	8%	-3%	-3%
17	COc1ccc(Cn2ccnc2SCC(=O)Nc2nc3ccccc3s2)cc1	-23%	-9%[46.1 µM]	.	.
18	O=C1SCCc2c1n(Cc1ccccc1)c1ccccc21	-2%	10%	?	0%
19	Cc1cc(C)c(NC(=O)CSc2nc(=O)n3cc(C)ccc3n2)c(C)c1	.	17%	12%	.
20	Cc1nnsc1C(=O)N/N=C/c1ccccc1Cl	.	11%	?	-1%

entry	RE007 growth inh	SARS PLP yeast	Cruzain inh Det	StopGo reporter
11	-13%	-1%	.	4%
12	.	.	-3.5%	-9%
13	21%	10%	.	15%
14	17%	4%	.	16%
15	5%	1%	-3.1%	-8%
16	-2%	2%	-3.0%	-23%
17	.	.	-6.3%	-26%
18	-1%	9%	-8.0%	0%
19	-3%	-2%	.	-9%
20	-18%	0%	.	7%

# Part of the list above in order of heavy-atom count, falling:
entry	Structure	Cruzain inh noDet	LASV entry inh	Marburg entry inh	NS1 function inh
15	CC(C)Cn1c(SCc2nc3ccccc3c(=O)[nH]2)nc2ccccc2c1=O	18%	2%	-8%	2%
13	Cc1n[nH]c(=S)n(NC(=O)CC(=O)Nn2c(=S)[nH]nc(C)c2=O)c1=O	.	3%	6%[46.1 µM]	.
14	Cc1cccc(OP(N)(N)=O)c1C	.	-1%	22%[46.1 µM]	.

entry	RE007 growth inh	SARS PLP yeast	Cruzain inh Det	StopGo reporter
15	5%	1%	-3.1%	-8%
13	21%	10%	.	15%
14	17%	4%	.	16%

# (listing goes on)
entry	Structure	Cruzain inh noDet	LASV entry inh	Marburg entry inh	NS1 function inh
21	Cc1nc(-c2ccc(S(=O)(=O)NCc3ccc(N(C)C)cc3)cc2)co1	-10%	-7%[46.1 µM]	.	.
22	COc1ccc(C(=O)NC2CC2)cc1OC1CCN(Cc2ccc(Cl)cc2)CC1	.	-7%	?	-5%
23	O=C(CSc1nnc(-c2cccnc2)o1)Nc1ccc(Br)cc1	.	11%	2%[46.1 µM]	-3%
24	COc1ccc(NC(=O)CN2C(=O)c3ccccc3Sc3ccc(C(=O)N4CCOCC4)cc32)c(OC)c1	?	?	-1%&-1%[46.1 µM]	.
25	O=C(Nc1ccc(Br)cc1)c1ccc(Cl)c(S(=O)(=O)N2CCCCCC2)c1	-1%	?	.	.
26	Cc1ccc(N2CCCn3c2nc2c3c(=O)n(CCN3CCOCC3)c(=O)n2C)cc1	6%	.	-1%	2%
27	CC(Sc1ncnc2sccc12)C(=O)Nc1ccc(S(N)(=O)=O)cc1 (stereo not drawn)	.	0%[46.1 µM]	?	.
28	CCCC(=O)OCC(=O)Nc1cc(Cl)ccc1[N+](=O)[O-]	.	-5%[46.1 µM]	11%[46.1 µM]	.
29	CC(C)n1cc(CNC(=O)C2CCC(=O)N(Cc3ccccc3F)C2)cn1 (stereo not drawn)	.	0%[46.1 µM]	22%[46.1 µM]	11%
30	NC(=O)C1CCN(c2ncc(C(F)(F)F)cc2Cl)CC1	.	0%	15%[46.1 µM]	.

entry	RE007 growth inh	SARS PLP yeast	Cruzain inh Det	StopGo reporter
21	.	.	-4.6%	-25%
22	-10%	-3%	.	0%
23	11%	11%	.	-6%
24	1%	-4%	-3.5%	-9%&-19%
25	.	.	0.2%	28µM*
26	.	-2%	1.4%	.
27	5%	3%	.	-10%
28	-22%	-1%	.	-12%
29	8%	2%	.	1%
30	-20%	0%	.	-2%

# Continued:
entry	Structure	Cruzain inh noDet	LASV entry inh	Marburg entry inh	NS1 function inh
31	CN(C)C(=O)c1cc(Br)ccc1Cl	1%	0%	-1%	8%
32	COc1ccc(CN(CC(=O)NCc2ccccc2)C(=O)CCC(=O)Nc2cc(C)ccn2)cc1	.	?	?	-5%
33	O=C(c1cccs1)N1CCc2c([nH]c3ccccc23)C1c1ccccn1 (stereo not drawn)	.	.	.	2%
34	Cc1ccn(-c2cccc(-n3ccc(C)n3)n2)n1	0%	-9%	?	-8%
35	N#C/C(=C\c1ccc(O)cc1)C(=O)NCc1ccccc1	.	-4%[46.1 µM]	-1%[46.1 µM]	-4%
36	O=C(c1ccc2c(c1)CCCC2)N1CCN(c2nc3ccc(F)cc3s2)CC1	3%	18%[46.1 µM]	.	.
37	NS(=O)(=O)c1cccc(NC(=O)COC(=O)c2cc([N+](=O)[O-])ccc2N2CCCC2)c1	.	-17%	-19%	.
38	O=C(CSc1nnc2n1CCCCC2)Nc1ccc(N2CCOCC2)cc1	.	11%	11%[46.1 µM]	5%
39	Cc1nc2ccc(Br)cc2c(=O)n1-c1ccc([N+](=O)[O-])c(C(F)(F)F)c1	?	24%	7%	11%
40	CCOC(=O)C1=C(C)NC(C)=C(C(=O)OCC)C1C(=O)OCC(=O)NC1CCCCC1	.	?	-23%	.

entry	RE007 growth inh	SARS PLP yeast	Cruzain inh Det	StopGo reporter
31	26%	7%	3.1%	6%
32	-14%	0%	.	8%
33	23%	0%	.	0%
34	-16%	-7%	0.2%	65%[activator]
35	-4%	-4%	.	15%
36	.	.	-7.8%	-24%
37	-27%	2%	.	?
38	9%	1%	.	6%
39	15%	4%	2.9%	-26%
40	3%	0%	.	-12%

# More entries follow.
entry	Structure	Cruzain inh noDet	LASV entry inh	Marburg entry inh	NS1 function inh
41	CCCOc1ccc(C2=CSC3=NCCN23)cc1	.	-14%[46.1 µM]	-8%[46.1 µM]	-1%
42	Cc1ccc(NC(=O)c2ccc3c(c2)NC(=O)c2ccccc2S3)c(Cl)c1	-23%	.	-7%[46.1 µM]	.
43	Cc1cccc(NC(=O)c2c(C)cc(C)nc2SCC(=O)Nc2c(C)cc(C)cc2C)c1	0%	6%[46.1 µM]	8%[46.1 µM]	.
44	O=C(CSc1nc2cc(C(=O)NC3CCCC3)ccc2c(=O)n1CC1CCCO1)c1ccc(F)cc1 (stereo not drawn)	-1%	-8%[46.1 µM]	.	.
45	CN1C(=O)CC2(CC(=O)N(Cc3ccccc3)C2)C1=O (stereo not drawn)	-2%	-4%	-17%[46.1 µM]	-37%
46	CCN(CC(=O)Nc1ccc(NC(C)=O)cc1)C(=O)/C=C/c1c(C)nn(-c2ccc(F)cc2)c1Cl	.	?	?	.
47	Cc1ccc(C(=O)N2CCN(S(=O)(=O)c3ccccc3)CC2)cc1	.	-19%	-2%[46.1 µM]	4%
48	CC(C)(C)N1CC(C(=O)Nc2ccc(C#N)cc2)CC1=O (stereo not drawn)	.	16%	1%	19%
49	CCn1ncc(Br)c1C(=O)Nc1ccccc1OC	.	.	3%[46.1 µM]	.
50	Cc1cccc(NC(=O)c2ccc(COc3ccc(Cl)cc3Cl)o2)n1	-2%	-1%	9%	-3%
51	Cc1cccc(N2CCN(C(=O)c3cc(S(=O)(=O)N(C)C)ccc3N3CCCC3)CC2)c1C	.	?	?	5%
52	Cc1ccc(NC(=O)N2CCC(NC(=O)c3ccccc3C)CC2)cc1	2%	2%	14%	-3%

entry	RE007 growth inh	SARS PLP yeast	Cruzain inh Det	StopGo reporter
41	7%	-4%	.	-12%
42	.	.	1.0%	-29%
43	.	.	0.3%	-22%
44	.	.	1.3%	-1%
45	-1%	15%	2.2%	3%
46	-5%	-2%	.	-12%
47	1%	-1%	.	-26%
48	-1%	3%	.	1%
49	-12%	0%	.	-9%
50	-24%	-35%	-11%	-18%
51	-13%	3%	.	-28%
52	-1%	-4%	0.8%	2%

# Hits appear at their usual frequency, and some 4.6% of all compounds hit somewhere here.
